Bioassay records: PubChem, National Center for Advancing Translational Sciences (NCATS)
Vaccinia mCherry – qHTS for Stage-Specific Inhibitors of Vaccinia Orthopoxvirus: mCherry Reporter Primary qHTS. hit rate 0.63% among 310,000. AID 720579, 2013. Potency, µM (titrated, usually from 36.5 µM), for the others: at the top dose activity change, negative = inhibition, most hits filed as inhibitors. Vaccinia virus mCherry reporter infection, fluorescence; about a quarter of the inactives have no number; active = well fitted inhibition curve with a large enough effect; inconclusive = small, poorly fitted or top-dose-only effect; inactive = no such curve, though single readings can be large or run the other way; tested in A549 cells; further: nearly all actives have a fitted effect of over 35% in size; inactives centre near -10
Vaccinia Venus – qHTS for Stage-Specific Inhibitors of Vaccinia Orthopoxvirus: Venus Reporter Primary qHTS; hit rate 0.46% among 330,000; Vaccinia virus Venus reporter expression, fluorescence; Potency, µM (titrated, usually from 36.5 µM), without a hit: at the top dose activity change, negative = inhibition, hits mostly inhibitors; AID 720580, 2013; active means well fitted inhibition curve with a large enough effect; inconclusive means small, poorly fitted or top-dose-only effect; inactive means no such curve, though single readings can be large or run the other way; tested in A549 cells; further: nearly all actives have a fitted effect of over 30% in size; inactives centre near -10
Starred values were filed as active, the others as inactive; i = inactive; ? = inconclusive; · = no result given; [ ] = dose if it differs, or a comment. On the % scale 0 is the no-effect control and ±100 the full control effect; potency means the concentration at half of the fitted maximal effect.

SMILES	Vaccinia mCherry	Vaccinia Venus
O=C(c1ccco1)N1CCN(C2CN(C3CCCC3)S(=O)(=O)C2)CC1 (stereo unspecified)	55%[activator]	-2%
CCOc1cc(-c2nnc(SCC(=O)NC3CCCCC3)nc2-c2ccc(OC)c(OCC)c2)ccc1OC	-11%	-5%
O=C(Nc1nnc(-c2ccco2)s1)c1ccccc1	-13%	-10%
N#Cc1ccc(C(=O)OCC(=O)N2CCCC2)cc1	-4%	1%
C=CCc1cccc2cc(-c3nc4ccc(C(=O)O)cc4[nH]3)c(=O)oc12	i	-8%
CC(C)(CNC(=O)C1c2ccccc2-c2ccccc21)N1CCOCC1	i	0%
CCCn1c(O)c(CN2CCCC(C)C2)c(C)c(C#N)c1=O (stereo unspecified)	5%	15%
CCC(=O)Nc1cccc(NC(=S)NC(=O)c2cc3ccccc3o2)c1	-11%	-7%
Cc1sc(-c2ccncc2)nc1OC(=O)c1ccccc1	-13%	-15%
COc1ccc(C2C3=C(CCCC3=O)Nc3nc(SCc4ccc(C(=O)O)cc4)nn32)cc1OC (stereo unspecified)	-11%	0%
O=C(NCCN1CCN(c2ccccc2)CC1)C1(S(=O)(=O)c2ccc(Cl)cc2)CC1	?	-22%
CC(C)Nc1nnc(SCC(=O)N2CCN(C(=O)c3ccco3)CC2)s1	0%	7%
Nc1c2c(nn1-c1ccccc1)CCC2	-21%	-12%
CCOC(=O)c1c(NC(=O)CSc2nnc(-c3cccnc3)o2)sc2c1CCC2	-9%	1%
CCOc1ccc(NC2OC(C)C(O)C(O)C2O)c([N+](=O)[O-])c1 (stereo unspecified)	-6%	0%
C/C(=N\NC(=O)c1ccncc1)c1ccc(N(C)C)cc1	-1%	7%
COC(=O)c1cccc(CC2(C)C(=O)Nc3ccc(OC(F)(F)F)cc32)c1 (stereo unspecified)	-2%	-12%
O=C1NC(=Nc2ccccc2)c2ccc([N+](=O)[O-])cc21	-7%	-2%
C/C(=N\NC(=O)c1cc2ccccc2cc1O)c1cccs1	-20%	-25%
CCC1(CC)C(=O)C2=C3C1[C@H](C(=O)OC)CC(C(=O)OC)C[C@H]3[C@H]1C(=O)N(c3ccccc3)C(=O)[C@H]1[C@H]2C (stereo partly specified)	i	-17%
O=C(c1ccco1)N1CCC(c2nc3c(nnn3Cc3c(Cl)cccc3Cl)c(=O)[nH]2)CC1	?	-4%
O=C(c1ccc(O)c(Cl)c1)N1CCN(S(=O)(=O)c2ccccc2)CC1	-1%	-7%
CCS(=O)(=O)c1ccc(O)c(NC(=O)/C=C/c2ccc(Cl)cc2)c1	-5%	9%
Cc1cc(C)cc(N(C(=O)c2snc(C(N)=O)c2N)C(C(=O)NCC2CCCO2)c2cccs2)c1 (stereo unspecified)	-23%	-12%
COc1ccc(S(=O)(=O)c2c(Nc3ccc(C)cc3)sc(C(=O)c3ccc4c(c3)OCO4)c2N)cc1	1%	-4%
Cc1ccc(Cn2cc(S(=O)(=O)c3ccccc3)c(=O)c3cc(F)c(N4CCOCC4)cc32)cc1	-2%	-6%
O=C(CNC(=O)c1ccc(Cl)cc1Cl)NCC(=O)Nc1ccccc1N1CCOCC1	·	-19%
CC1=CCP(=O)(c2ccccc2)C1 (stereo unspecified)	-11%[1.46 µM]	-14%
Cc1ccc(C)c2nc(N3CCCC3)c(C#N)cc12	i	-6%
Cc1cccc(NC(=O)N(Cc2nc3ccccc3c(=O)[nH]2)C2CCCC2)c1	-7%	1%
CC(=O)Nc1ccc(S(=O)(=O)N2CCN(c3ccccn3)CC2)cc1	-6%	-15%
C=C(c1ccc(OCCO)cc1)c1ccc(OCCO)cc1	i	-8%
Cc1cccc(CN2CCN(C3CN(Cc4cn(Cc5ccccc5)nn4)S(=O)(=O)C3)CC2)c1 (stereo unspecified)	8%	-3%
COc1cc(C(=O)NC2CCN(CC(=O)Nc3cccc(C)c3C)CC2)cc(OC)c1OC	-7%	-8%
COc1ccc2nc(NC(=O)c3cc(S(=O)(=O)N4CCOCC4)ccc3C)sc2c1	·	?
O=C(NC(=S)Nc1ccccc1N1CCOCC1)c1ccco1	-18%	-1%
CC1CCN(C(=O)Cn2c(=O)n(CCCCCC(=O)NCc3ccccc3Cl)c(=O)c3sccc32)CC1	-26%	-2%
CCOC(=O)N1CCN(C(=O)CSCC(=O)N=c2sc3ccccc3n2C)CC1	·	-16%
CCCCOC(=O)C1C2C=C[C@]3(CN(C(C)c4ccc(OC)cc4)C(=O)[C@H]13)O2 (stereo partly specified)	-20%	-14%
CCCC1CC(C#N)N(N(C)C)C1=C(C#N)C#N (stereo unspecified)	-16%	-9%
CCCc1cc(=O)[nH]c(Nc2cccc(Cl)c2Cl)n1	-17%	-7%
CC1=C(C(=O)Nc2ccccn2)C(c2cn(C)nc2C)C2=C(CCCC2=O)N1 (stereo unspecified)	i	-4%
CC1(C)CC(=O)C(C=NCCc2ccccn2)=C(O)C1	-5%	-5%
CC(C)(CNC(=O)Cc1ccc(Br)cc1)N1CCOCC1	8%	-7%
COCCCNC(=O)Cc1coc2ccc3ccccc3c12	i	11%
CC(=O)OC[C@]12CCC(C)=C[C@H]1O[C@@H]1[C@H](O)[C@@H](OC(C)=O)[C@@]2(C)[C@]12CO2	?	3.2µM*
COC(=O)CSCc1nc2ccccc2[nH]c1=O	i	9%
Cc1ccc(S(=O)(=O)CC(O)COc2ccc(F)cc2Cl)cc1 (stereo unspecified)	i	-25%
O=C(O)c1cccc(S(=O)(=O)Nc2ccc(Cc3ccncc3)cc2)c1	-6%	-2%
O=C(Nc1ccc(OC(F)F)cc1)c1nc(SCc2ccccc2F)ncc1Cl	13%	-13%
O=C(O)CSC(C(=O)Nc1ccc(Br)cc1)c1ccc(Cl)cc1 (stereo unspecified)	i	-2%
COc1ccc(C(=O)c2sc3nc(-c4ccc(OC)cc4)ccc3c2N)cc1	i	-7%
COC(=O)C1(C(=O)OC)C[C@H](c2ccc(OC)cc2)N(Cc2ccccc2OC)[C@@H]1c1ccc(OC)cc1	8%	0%
CN(CC(=O)Nc1ccc(Cl)cc1)S(=O)(=O)c1ccc2c(c1)n(C)c(=O)c(=O)n2C	i	-10%
c1ccc(CCc2nc(-c3cccnc3)no2)cc1	-21%	-15%
CC(C)C[C@@H]1COc2cc(N3CC[C@H](O)C3)ccc2S(=O)(=O)N1	-1%	-4%
CSc1nc(C)cc(SCC(=O)N/N=C/c2ccccc2)n1	i	-14%
C=CCNc1nc(-c2ccc(Cl)cc2)cs1	-29%[1.46 µM]	-23%
COC(=O)Cc1ccc(NC(=S)N2CCCC(CO)C2)cc1 (stereo unspecified)	-13%	-5%
CC(NC(=O)CN(C)Cc1nc2ccccc2c(=O)[nH]1)c1ccccc1 (stereo unspecified)	-7%	4%

The list continues:
SMILES	Vaccinia mCherry	Vaccinia Venus
COc1ccccc1C(=O)NNC(=O)C(=O)NC1CCCCC1	?	-4%
C[C@H]1CN([C@@H](C)CO)C(=O)CCCn2nncc2CO[C@H]1CN(C)C(=O)c1ccc(N2CCN(C)CC2)cc1	?	6%
C=CCCC[C@@H]1OC(=O)CNC(=O)C([C@@H](C)CC)NC(=O)[C@@H]2CCCN2C(=O)C([C@@H](C)CC)OC(=O)[C@H](Cc2ccccc2)N(C)C(=O)[C@H](C(C)C)NC(=O)C1(C)C (stereo partly specified)	?	?
COCc1cc(C)nc(SCC(=O)Nc2cc(C(F)(F)F)ccc2N2CCOCC2)c1C#N	i	-12%
O=C(C(Cc1ccccc1)n1cccc1)N1CCCCC1 (stereo unspecified)	-5%	-17%
Cc1ccc(/C(N)=N/OC(=O)Oc2ccccc2)cc1	i	-19%
Nc1nc2ccc(S(=O)(=O)N3CCCCC3)cc2s1	-14%	-16%
CCOC(=O)C1CCCN(S(=O)(=O)c2cc3c(cc2C)NC(=O)CO3)C1 (stereo unspecified)	3%	1%
N#Cc1c(C(F)(F)F)cc(-c2cccs2)nc1N1CCCCC1	-14%	-15%
CCOC(=O)C(NC(=O)CC(C)C)(Nc1sc2c(c1C(N)=O)CCCC2)C(F)(F)F (stereo unspecified)	-5%	0%
CCCCOC(=O)/C(C#N)=C/c1ccc(-c2cccc(C(F)(F)F)c2)o1	-5%	1%
COc1ccc(OC)c(CN2CCN(c3ccc(S(=O)(=O)N4CCCC4)cn3)CC2)c1	?	?
COc1cccc(C2C(C(=O)OC(C)C)=C(C)N=c3s/c(=C\c4ccc(C(=O)O)cc4)c(=O)n32)c1 (stereo unspecified)	i	-13%
CC1CCN(c2ccc([N+](=O)[O-])cc2C(=O)NCC2CCCO2)CC1 (stereo unspecified)	-1%	-16%
COc1cc(OC)cc(C(=O)NCCCN2CCN(CCCNC(=O)c3cc(OC)cc(OC)c3)CC2)c1	-20%	0%
CC(O)(c1cccc(F)c1)c1nc(-c2cccc(C(F)(F)F)c2)cs1 (stereo unspecified)	-17%	-17%
CCOc1cc(C2C3=C(CC(C)(C)CC3=O)Nc3n[nH]c(C)c32)ccc1O (stereo unspecified)	-10%	0%
c1coc(CNCCc2c[nH]c3ccccc23)c1	?	-3%
COc1ccc(-c2cc(-c3ccc(O)cc3)nc(N)c2C#N)cc1OC	-17%	?
CC(C)CNC(=O)c1ccccc1Oc1ccccc1	·	-13%
CN(C)CC(C)(C)NS(=O)(=O)c1ccc(Cl)cc1	-11%	-19%
CC[C@]12C(=O)N(C)C[C@H]([C@@H]3C(=O)N(C)C(=O)[C@@H]31)N2C(=O)c1ccc(Cl)cc1	-18%	4%
COCC(=O)NCc1nc2cccnc2n1Cc1ccc(F)cc1	-3%	-1%
COc1ccc(C(C)(C)C)cc1NC(=O)CNc1cccc2ccccc12	-15%	-14%
CCCCCCCNC(=O)C1(CC2CC(c3ccc(Cl)cc3)=NO2)CCNCC1 (stereo unspecified)	?	?
C=CCNC(=S)/C(=C(\[O-])c1ccc(Cl)cc1)[n+]1ccccc1	i	-11%
CCOc1ccccc1/C=C(/NC(=O)c1ccccc1)C(=O)NC(C)c1ccccc1 (stereo unspecified)	-16%	-8%
Brc1cnc(OCc2ccccc2)nc1OCc1ccccc1	-11%	5%
COc1ccc(N2CCN(C(=O)c3cc4c(=O)n(Cc5ccco5)ccc4nc3C)CC2)cc1	-14%	-7%
CCOC(=O)CCCc1ccc(/C(C)=N/NC(N)=S)cc1	?	?
Cc1ccc(S(=O)(=O)N2CCOCC2)cc1C(=O)Nc1ccc(N2CCCCCC2)cc1	?	-27%
Cc1cc(C(=O)NC2CCCCCCC2)ccc1[N+](=O)[O-]	-3%	0%
CC(C)CC(=O)N1CCN(Cc2ccc(Cl)cc2)CC1	i	-16%
Cc1cccc2c(CC(=O)O)noc12	-10%	-1%
O=C(COc1ccc(Cl)cc1)Nc1ccc(Cl)cn1	·	-1%
CCc1nnc(NS(=O)(=O)c2ccc(NC(=O)c3cccc(OC(F)(F)C(F)F)c3)cc2)s1	-3%	4%
COc1ccccc1CCc1nnc(CCC(=O)NC(C)Cc2cccs2)o1 (stereo unspecified)	-12%	-4%
COc1cc2c(c(OC)c1OC)-c1c(cc3c(c1O)OCO3)C[C@@H](C)[C@@H](C)C2	?	-28%
Cc1cc(C)c(NC(=O)c2ccc(CN3CCc4ccccc4C3)cc2)c(C)c1	·	?
COc1ccc(N2CCN(C(=O)c3cc4c(s3)-c3c(C)cccc3OC4)CC2)cc1	-12%	-15%
CCCCCCn1c(SCCCC)nc2c1c(=O)[nH]c(=O)n2C	·	-7%
Cc1cc(SCC(=O)N/N=C/c2ccc(O)c(O)c2)nc2ccccc12	?	2%

Grouped by structure: the compounds so far with fluorine.
SMILES	Vaccinia mCherry	Vaccinia Venus
COC(=O)c1cccc(CC2(C)C(=O)Nc3ccc(OC(F)(F)F)cc32)c1 (stereo unspecified)	-2%	-12%
Cc1ccc(Cn2cc(S(=O)(=O)c3ccccc3)c(=O)c3cc(F)c(N4CCOCC4)cc32)cc1	-2%	-6%
Cc1ccc(S(=O)(=O)CC(O)COc2ccc(F)cc2Cl)cc1 (stereo unspecified)	i	-25%
O=C(Nc1ccc(OC(F)F)cc1)c1nc(SCc2ccccc2F)ncc1Cl	13%	-13%
COCc1cc(C)nc(SCC(=O)Nc2cc(C(F)(F)F)ccc2N2CCOCC2)c1C#N	i	-12%
N#Cc1c(C(F)(F)F)cc(-c2cccs2)nc1N1CCCCC1	-14%	-15%
CCOC(=O)C(NC(=O)CC(C)C)(Nc1sc2c(c1C(N)=O)CCCC2)C(F)(F)F (stereo unspecified)	-5%	0%
CCCCOC(=O)/C(C#N)=C/c1ccc(-c2cccc(C(F)(F)F)c2)o1	-5%	1%
CC(O)(c1cccc(F)c1)c1nc(-c2cccc(C(F)(F)F)c2)cs1 (stereo unspecified)	-17%	-17%
COCC(=O)NCc1nc2cccnc2n1Cc1ccc(F)cc1	-3%	-1%
CCc1nnc(NS(=O)(=O)c2ccc(NC(=O)c3cccc(OC(F)(F)C(F)F)c3)cc2)s1	-3%	4%
